UCH37 inh: blocks the human deubiquitinase UCH37; Q9Y5K5; purified proteasome/UCH37, Ub-AMC cleavage fluorescence; inhibition, % (test concentration not listed); actives 0.33% (n = 330,000);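 active means mean of two replicates above 20%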;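 further: 0% = compound-free wells with enzyme and 100% = wells lacking proteasome; stock transfer was 100 nL into about 20 µL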
Target sequence (Q9Y5K5 whole entry, looked up): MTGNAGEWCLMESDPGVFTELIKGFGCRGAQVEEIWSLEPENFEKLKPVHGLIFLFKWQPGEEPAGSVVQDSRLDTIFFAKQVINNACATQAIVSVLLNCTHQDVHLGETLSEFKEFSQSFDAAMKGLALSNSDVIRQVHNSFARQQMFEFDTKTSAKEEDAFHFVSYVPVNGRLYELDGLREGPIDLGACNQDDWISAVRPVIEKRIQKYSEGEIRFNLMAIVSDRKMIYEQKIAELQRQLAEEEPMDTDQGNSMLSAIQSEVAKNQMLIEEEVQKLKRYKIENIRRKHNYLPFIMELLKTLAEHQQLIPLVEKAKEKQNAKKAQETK
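Material: human UCH37 enzyme supplied as purified proteasome complex / Amount: 0.15 nM proteasome as dispensed / Buffer or medium: pH 7.4 Tris-HCl (50 mM) with ovalbumin, ATP-MgCl2, DTT / Times: preincubation 30 min, reaction 25 min, room temperature / Technique: AMC fluorescence from Ub-AMC cleavage, excitation 355 nm, emission 460 nm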
Starred values were filed as active, the others as inactive. A portion of the library. The share of hits here may be higher or lower than overall.

SMILES	UCH37 inh
CCc1nnc(NN=Cc2cc(C)c(C)cc2C)n1N	3.7
O=C(NN=Cc1ccc(COc2ccc(Br)cc2)o1)c1ccc2c(c1)OCO2	6.3
Fc1ccccc1C=NNc1nc2ccccc2o1	-10
O=[N+]([O-])c1ccc(Cl)c(S(=O)(=O)N=C(c2ccccc2)N2CCOCC2)c1	3.1
Cc1c(C=NNC(=O)CNc2ccccc2)c2ccccn2c1C(=O)c1ccccc1	1.1
O=C(ON=C1CCSc2ccccc21)c1ccccc1	-2.7
COc1cc(NN=C(C)c2ccc(N)cc2)nc(-c2ccccc2)n1	-11
Cc1ccc(S(=O)(=O)NN=Cc2cccs2)cc1	3.7
Fc1ccc(NC(=S)NN=Cc2ccc(F)c(F)c2)cc1	0.0
CC(=NNC(=O)CN1CCN(S(=O)(=O)c2ccc(Br)cc2)CC1)c1cccnc1	1.9
Nc1nnnn1CC(=O)NN=Cc1cccs1	2.3
Cc1c(C)c(C)c(CON=Cc2cccs2)c(C)c1C	2.1
CC1=NN(/C(=N/c2nnc(C)s2)Nc2ccccc2)[C@H](c2ccc(C)cc2)S1	6.9
CNC(=S)NN=Cc1ccc(C(C)C)cc1	3.7
COC1(OC)C(=NO)C(=NO)CCC1O (stereo not given)	0.7
COc1cccc(C=NNC(=O)c2[nH]nc3c2CCc2ccccc2-3)c1O	3.3
COc1ccc(C(=O)NCC(=O)NN=Cc2ccc(C)o2)cc1OC	4.4
O=C(O)c1cccc(NC(=NS(=O)(=O)c2ccccc2)c2ccccc2)c1	7.8
COc1c(Br)cc(Br)cc1C=NNC(=O)c1ccncc1	6.9
O=c1c(=Cc2ccccn2)sc2n1CN(c1ccccc1)CN=2	8.5
O=C(NN=Cc1ccccn1)c1ccc([N+](=O)[O-])cc1Cl	2.1
COc1ccc(C=c2sc3n(c2=O)NC2(c4ccccc4)N(C)C(=O)N(C)C2(c2ccccc2)N=3)cc1 (stereo not given)	3.5
Cc1ccc(S(=O)(=O)N=c2sccn2C)cc1	1.4
Cc1ccc(NC(=O)ON=Cc2ccc(F)cc2)cc1	5.2
Cn1c(=O)[nH]c(=O)c2c1nc(NN=Cc1ccncc1)n2Cc1ccc(Cl)cc1	-51
COc1ccc(CNC(=S)NN=Cc2ccc(OC)c(OC)c2)cc1	7.8
Nc1nnnn1CC(=O)NN=Cc1ccccn1	-1.5
O=C(Cn1cncn1)NN=Cc1ccccc1Cl	1.0
CC(=NNC(=O)C(=O)Nc1ccc(C)cc1)c1ccncc1	2.9
O=C(NN=Cc1c[nH]c2ccccc12)c1[nH]c2ccc(Br)cc2c1-c1ccccc1	-185
C/C(C=NNC(=O)c1cc(C)oc1C)=C\c1ccccc1	3.9
Cn1c(Cl)c(C=NOC(=O)C(C)(C)C)c2ccccc21	2.0
COc1cccc(NC(=S)NN=C2CC(C)(C)Oc3ccc(O)cc32)c1	-14
Cc1nnc(NN=Cc2c(Cl)cccc2Cl)n1N	2.8
CC(=NNc1nc2ccccc2s1)c1cccs1	3.2
COc1cccc(C=NNc2ncnc(Cl)c2N)c1O	3.8
CC(=NNC(=S)NC1CCCCC1)c1ccc(C#N)cc1	6.3
O=C(NN=Cc1ccco1)c1cc(-c2ccncc2)nc2ccccc12	8.4
COc1ccccc1C=NNC(=O)CC(=O)Nc1ccc(Cl)c(Cl)c1	2.4
CC(=O)Nc1ccc(C(C)=NNC(=O)c2ccc(COc3ccccc3Cl)o2)cc1	2.1
Cc1nn(-c2ccccc2)c(Cl)c1C=NNC(=O)c1cncc(Br)c1	3.6
O=C(CO)NN=Cc1c2ccccc2cc2ccccc12	-0.9
CN(C)c1ccc(/C=C/C=NNc2nc(N3CCOCC3)nc(N3CCOCC3)n2)cc1	-53
Cn1cccc1C=NNC(=O)Cc1cccc2ccccc12	4.4
NC(Cc1nc(-c2ccc(Cl)cc2)cs1)=NO	1.5
Cc1ccc(S(=O)(=O)CN=C(NC(=S)N(c2ccccc2)c2ccccc2)c2ccccc2)cc1	4.2
O=C(O)c1ccc(C=NNC(=O)c2ccc(F)cc2)cc1	5.3
Cc1cc(Cl)c(S(=O)(=O)NN=Cc2ccc3c(c2)OCO3)c(Cl)c1	1.7
COc1ccc(C=NNC(=O)c2ccc3nc[nH]c3c2)cc1	3.0
Cc1ccsc1C=Nn1c(C2CCCCC2)n[nH]c1=S	4.9
COC(=O)NN=C1CCCc2c(C)cc(C)cc21	1.0
CC(=NNC(=O)CCCOc1ccc(Cl)cc1Cl)c1ccc(C)o1	6.6
C(=NNc1ccccc1)c1ccc(N2CCOCC2)cc1	-6.7
Cc1ccc(C=Nn2c(C3CCCCC3)n[nH]c2=S)cc1	1.9
COc1ccc(CCNC(=O)CON=Cc2cc3c(cc2Br)OCO3)cc1OC	3.2
CC(=NNC(=O)CNC(=O)c1ccccn1)c1ccccc1	-2.2
Cc1ccc(CN2CCN(N=Cc3cccc([N+](=O)[O-])c3)CC2)cc1	-1.5
O=C(NN=Cc1ccc([N+](=O)[O-])o1)C(O)c1ccccc1 (stereo not given)	13
COc1ccc(C(C)=NNC(=O)c2cccc(S(=O)(=O)N3CCCC3)c2)c(O)c1	-21
O=C(NN=C/C(Br)=C/c1ccccc1)NC1CCCCC1	4.0
The results go on.
SMILES	UCH37 inh
O=C(NN=Cc1ccc(Cl)s1)C1COc2ccccc2O1 (stereo not given)	2.8
Cc1nn(-c2ccccc2)c(C)c1C=NNC(=O)c1cccs1	2.8
CCC(=O)NN=Cc1ccc(OS(=O)(=O)c2ccccc2)cc1	1.1
COc1cc(C=NNc2nc(C)cc(C)n2)cc(OC)c1OC	5.9
COc1c(Br)cc(Br)cc1C=NNC(=O)c1cccnc1	7.2
Cc1ccc2[nH]c(C(=O)NN=Cc3ccccc3C(=O)O)c(-c3ccccc3)c2c1	11
Cc1cccc(NCC(=O)NN=Cc2cccn2C)c1	5.1
COc1ccc(C=NNc2ncc(Br)cn2)c(OC)c1	4.3
C(=NNc1nc2ccccc2[nH]1)c1ccc2c(c1)OCO2	-3.4
COc1ccc(C=NNC(=O)c2cccc([N+](=O)[O-])c2)cc1O	4.7
ON=C1CCSc2ccccc21	4.3
C=CCNC(=S)N=c1ccccn1CC	5.5
Cc1cc(C=NNC(N)=S)c(C)n1-c1ccc(Br)cc1	-2.8
CC(=NNC(=O)c1nc2ccccn2c1C)c1ccco1	7.4
Cn1c(=O)c2ncn(CC(=O)NN=C/C=C/c3ccccc3)c2n(C)c1=O	8.3
Cc1ccc(C=NNC(=S)NC2CCCCC2)o1	6.7
O=C(NC1CC(=NO)c2cc3c(cc21)OCO3)C(F)(F)F (stereo not given)	-3.3
O=C(NN=C1CCCc2ccccc21)C(O)c1ccccc1 (stereo not given)	2.7
Oc1ccc(C=Nn2c(COc3ccccc3)n[nH]c2=S)c(O)c1	2.4
Cc1c(NC(=S)NN=Cc2ccc(N(C)C)cc2)c(=O)n(-c2ccccc2)n1C	-73

In another format: results already given
compound | UCH37 inh
COc1ccc(C(C)=NNC(=O)c2cccc(S(=O)(=O)N3CCCC3)c2)c(O)c1 | -21
O=C(NN=C/C(Br)=C/c1ccccc1)NC1CCCCC1 | 4.0
O=C(NN=Cc1ccc(Cl)s1)C1COc2ccccc2O1 (stereo not given) | 2.8
Cc1nn(-c2ccccc2)c(C)c1C=NNC(=O)c1cccs1 | 2.8
CCC(=O)NN=Cc1ccc(OS(=O)(=O)c2ccccc2)cc1 | 1.1
COc1cc(C=NNc2nc(C)cc(C)n2)cc(OC)c1OC | 5.9
COc1c(Br)cc(Br)cc1C=NNC(=O)c1cccnc1 | 7.2
Cc1ccc2[nH]c(C(=O)NN=Cc3ccccc3C(=O)O)c(-c3ccccc3)c2c1 | 11
Cc1cccc(NCC(=O)NN=Cc2cccn2C)c1 | 5.1
COc1ccc(C=NNc2ncc(Br)cn2)c(OC)c1 | 4.3
C(=NNc1nc2ccccc2[nH]1)c1ccc2c(c1)OCO2 | -3.4
COc1ccc(C=NNC(=O)c2cccc([N+](=O)[O-])c2)cc1O | 4.7
ON=C1CCSc2ccccc21 | 4.3
C=CCNC(=S)N=c1ccccn1CC | 5.5
Cc1cc(C=NNC(N)=S)c(C)n1-c1ccc(Br)cc1 | -2.8
CC(=NNC(=O)c1nc2ccccn2c1C)c1ccco1 | 7.4
Cn1c(=O)c2ncn(CC(=O)NN=C/C=C/c3ccccc3)c2n(C)c1=O | 8.3
Cc1ccc(C=NNC(=S)NC2CCCCC2)o1 | 6.7
O=C(NC1CC(=NO)c2cc3c(cc21)OCO3)C(F)(F)F (stereo not given) | -3.3
O=C(NN=C1CCCc2ccccc21)C(O)c1ccccc1 (stereo not given) | 2.7
Oc1ccc(C=Nn2c(COc3ccccc3)n[nH]c2=S)c(O)c1 | 2.4
Cc1c(NC(=S)NN=Cc2ccc(N(C)C)cc2)c(=O)n(-c2ccccc2)n1C | -73

The results go on.
SMILES	UCH37 inh
CCc1cccc2c(C=NNC(=O)c3cccc(S(=O)(=O)Nc4ccccc4Cl)c3)c[nH]c12	-6.3
CCCCc1n[nH]c2c1C(=NO)CC(c1ccccc1)C2 (stereo not given)	-0.7
Cc1ccccc1C(=O)NN=C1SCC(=O)N1Cc1ccc2c(c1)OCO2	-2.3
Cn1cccc1C=NNC(=O)Cc1ccccc1	4.5
CCc1ccc(C=NNC(=O)c2cc(C3CC3)nc3ccccc23)s1	-2.7
COc1ccc(OC)c(C=NNC(=O)c2ccc3nc[nH]c3c2)c1	-101
COC(=O)c1nn(-c2ccccc2)c(Sc2ccc(Br)cc2)c1C=NO	0.2
COc1ccc(OC)c(C=NNC(=O)C(=O)N2CCCCCC2)c1	-22
CC(=NOC(=O)c1cccc(C(F)(F)F)c1)c1cnccn1	1.4
CC(CC(=O)Nc1ccccc1C)=NNC(=O)Cc1csc(N)n1	-0.1
O=C(NN=Cc1ccc(O)cc1)c1cccc(C(F)(F)F)c1	8.6
N=C1N(N=Cc2ccccc2)C(=Nc2ccccc2)C(=S)N1c1ccccc1	8.0
COc1cccc2c(SCC(=O)NN=Cc3ccc(O)c(O)c3)cc(C)nc12	-40
O=C(NN=Cc1ccccc1Cl)C1CC1	0.1
CSc1ccc(C=NNc2cccc(C(=O)O)c2)cc1	12
Oc1ccc(C=NN2CCN(Cc3ccccc3)CC2)cc1	1.6
O=C(O)c1cc(NN=C/C=C/c2ccccc2)ccc1Cl	8.3
O=C(NN=Cc1ccc(-c2ccccc2Cl)o1)c1ccccc1	1.2
Cc1cccc2cc(C=NNC(=O)CN3CCOCC3)c(Cl)nc12	-4.0
CC(=NNC(=O)CC1N=C(Cc2ccccc2)NNC1=O)c1ccc(Cl)cc1Cl (stereo not given)	-1.8

Pulled one by one from above:
SMILES	UCH37 inh
C(=NNc1nc2ccccc2[nH]1)c1ccc2c(c1)OCO2	-3.4
Cc1ccc(CN2CCN(N=Cc3cccc([N+](=O)[O-])c3)CC2)cc1	-1.5

The list continues:
SMILES	UCH37 inh
COc1ccc(C(C)=NNc2nc3ccccc3n3cnnc23)cc1OC	9.7
Cc1ccc(NC(=O)CCC(=O)NN=Cc2ccc([N+](=O)[O-])o2)cc1C	6.8
CC(C)(CNC(=O)CON=C1C=C2CCC3C(C(O)C[C@@]4(C)C3CC[C@]4(O)C(=O)CO)[C@@]2(C)CC1)C(O)C(=O)O (stereo not given in full)	1.6
CC(=NNC(=O)c1cccc(F)c1)c1ccc(Br)s1	5.0
C(=NNc1nn2cnnc2c2ccccc12)c1ccco1	12
O=C(CNC(=O)c1ccncc1)NN=Cc1ccc(Br)cc1	7.2
O=C(NN=Cc1ccccn1)c1cc(-c2ccccc2)nc2ccccc12	2.3
CC(CC(=O)Nc1ccc2c(c1)OCCO2)=NNC(=O)COc1cccc(C)c1	-0.2
CC(=NNC(=O)c1ccco1)c1ccc(-c2ccccc2)cc1	2.8
COc1ccccc1/C=C/C(=O)NCC(=O)NN=Cc1ccccc1	-3.6
COc1cc(NC(=O)COC(=O)CON=C(C)c2ccc3c(c2)OCO3)cc(OC)c1	0.4
Nc1nonc1-n1nnc(C(=O)NN=Cc2ccccc2)c1CSc1ccccc1	2.2
Cc1c(C=NNC(N)=O)c2ccccn2c1C(=O)c1ccc(F)cc1	-2.6
CCOc1ccc2[nH]c(C(=O)NN=Cc3cccc(OC)c3OC)cc2c1	-33
CCC(=NO)c1cnnc(SC)n1	1.8
COc1ccc(CC(C)=NNC(=O)c2cccnc2)cc1	2.9
Cc1ccc(S(=O)(=O)N=C(c2ccc(Cl)cc2)N2CCOCC2)cc1	7.6
Cc1ccc(C=NNC(=O)c2ccccn2)o1	11
COc1ccccc1C=NNC(=O)c1ccc(Br)cc1	1.9
COc1cc(C=N/N=C2/NC(=O)C(CC(=O)O)S2)ccc1OCc1ccc(Cl)cc1 (stereo not given)	15
O=C(NN=CC1CCCCC1)c1ccccc1-n1cccc1	0.3
CCOc1c(Cl)cc(C=NNC(N)=S)cc1OC	6.6
Cc1ccc(C(C)C)c(OCc2ccc(C(=O)NN=Cc3ccc(O)c(O)c3)cc2)c1	-12
CCOc1ccc(N2C(=O)CSC2=NNC(=O)COc2ccc3ccccc3c2)cc1	4.2
COCc1cc(C)nc(OCC(=O)NN=Cc2ccc(C)cc2)c1C#N	3.9
COC(=O)c1ccc(C=NOCC(=O)Nc2cc(F)ccc2F)cc1	0.3
O=C(NN=Cc1cn(-c2ccccc2)nc1-c1ccccc1)c1ccc2c(c1)OCO2	3.2
O=C(Cc1n[nH]c(=O)[nH]c1=O)NN=CCCc1ccccc1	-3.2
O=C(NN=Cc1cccnc1)c1ccc(Cl)s1	4.2
CC1CCCCC1=NNC(=S)Nc1ccccc1 (stereo not given)	0.2
COc1ccc(C=NNC(=O)c2ccc(Cl)cc2Cl)cc1COC(C)=O	4.0
Cn1c(=NNC(=O)c2ccccc2Cl)sc2ccccc21	0.5
CCCOc1ccc(C=NO)cc1	1.9
CCOc1ccc(C=NNC(=O)C2CC2)c(OCC)c1	1.0
CC(=NNC(=O)c1cc(-c2ccncc2)nc2ccccc12)c1ccc(OC(F)F)cc1	-2.3
COCCN=c1scc(-c2cc(OC)c(OC)c(OC)c2)n1N=Cc1c(C)[nH]c2ccccc12	3.0
COc1ccc(C=NNC(=O)CCCOc2ccc(Cl)cc2Cl)cc1[N+](=O)[O-]	-1.6
COc1ccc(C(C)=NNC(=O)C2CC2)cc1	-0.7
